Assay outcomes (PubChem BioAssay)
rRNA inh HTS = inhibitors of bacterial rRNA selective over humanized ribosomes | hit rate 1.6% among 350,000 | E. coli WT GFP vs humanized-ribosome RFP mutants, fluorescence, 24 h; hits give low values; DMSO median 0, no signal -100 | GFP signal change (wild-type ribosome), % (test concentration not listed);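 active = significant combined selectivity score with lowered wild-type GFP, culture density cut under 30%, mutant RFP and density less affected; inactive = any of these conditions unmet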; also: one replicate is shown; some compounds called inactive have numbers as strong as hits
rRNA inh HTS OD600 = also measured in rRNA inh HTS; calls as there; OD600 change, %; measured here: OD600 growth;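 optical density of the mix in the first replicate; 0 = DMSO median and -100 = no signal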
rRNA inh HTS RFP = further read-out of rRNA inh HTS, marked with its call; RFP signal change, %; measured here: RFP humanized mutant strains;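 first replicate; 0 = DMSO median and -100 = no signal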
An asterisk follows results filed as active; & = joins results of further samples.

no.	Molecule	rRNA inh HTS	rRNA inh HTS OD600	rRNA inh HTS RFP
1	O=C(C[C@H]1CC[C@@H]2[C@H](COC[C@H](O)CN2C(=O)c2ccc3c(c2)OCO3)O1)NCCN1CCCCC1	-3.0	-1.2	2.2
2	C[C@@H]1CN([C@H](C)CO)C(=O)c2cc(C#CC3CCCCC3)cnc2O[C@@H]1CN(C)S(=O)(=O)c1ccc(F)cc1	3.9	-4.4	-0.3
3	Cc1noc(C)c1NC(=O)Nc1ccc2c(c1)C(=O)N([C@@H](C)CO)C[C@H](C)[C@@H](CN(C)C(=O)Nc1ccc3c(c1)OCO3)OCCCC[C@H](C)O2	2.7	4.5	2.5
4	O=C(C[C@@H]1CC[C@H](NC(=O)Cc2cccnc2)[C@@H](CO)O1)NCc1ccc2c(c1)OCO2	7.8	7.1	1.8
5	CCCC#Cc1cnc2c(c1)C(=O)N([C@H](C)CO)C[C@@H](C)[C@H](CN(C)S(C)(=O)=O)O2	4.3	12.0	-0.4
6	COc1ccccc1S(=O)(=O)N[C@H]1C=C[C@H](CC(=O)N2CCOCC2)O[C@@H]1CO	-2.3	-5.0	-0.1
7	CCNC(=O)C[C@H]1C=C[C@@H](NC(=O)C2CCOCC2)[C@@H](CO)O1	2.2	15.3	-3.2
8	C[C@H]1CN([C@@H](C)CO)C(=O)c2cc(NC(=O)C3CCCCC3)ccc2O[C@@H]1CN(C)C(=O)Nc1cccc2ccccc12	0.0	1.0	2.4
9	COc1ccc(NC(=O)N(C)C[C@H]2Oc3ccc(NC(=O)NC(C)C)cc3C(=O)N([C@@H](C)CO)C[C@H]2C)cc1	3.3	6.2	-1.7
10	Cc1ccc2nc(-c3ccco3)c(Cc3ccccc3C(F)(F)F)n2c1	2.8	4.9	6.2
11	O=C(C[C@H]1CC[C@@H]2[C@H](COC[C@H](O)CN2C(=O)c2ccccc2F)O1)NCc1ccc(Cl)cc1	-6.0	-7.8	-5.7
12	CCC(=O)N1CC(=O)N2[C@H](C1)[C@H](c1ccc(-c3ccccc3F)cc1)[C@@H]2CO	1.5	3.0	2.9
13	CCCNC(=O)N1[C@H](C#N)[C@H](c2ccc(C3=CCCCC3)cc2)[C@H]1CO	5.2	-17.5	13.8
14	O=C(CCN1CCCCC1)N[C@@H]1C=C[C@@H](CC(=O)N2CCC(Cc3ccccc3)CC2)O[C@H]1CO	-2.1	3.9	3.6
15	COc1ccc2c3c([nH]c2c1)[C@@H](CO)N(C(=O)Nc1ccccc1F)CC31CCN(C(C)=O)CC1	-1.1	-1.6	0.3
16	CC(C)=CCn1c2ccc(NC(=O)Nc3cccnc3)cc2c(=O)n1C	-2.7	10.5	4.0
17	CC1(C(=O)NS(=O)(=O)c2ccc(C#N)cc2)CCN1C(=O)CCc1ccc(Cl)cc1Cl (stereo unspecified)	-4.1	-3.1	0.0
18	COc1ccccc1NC(=O)Nc1ccc2c(c1)C(=O)N(C)C[C@@H](OC)[C@@H](C)CN[C@@H](C)CO2	1.9	0.4	2.1
19	C[C@H](O)C#Cc1cnc2c(c1)C(=O)N([C@H](C)CO)C[C@H](C)[C@H](CN(C)C(=O)c1ccccc1F)O2	1.9	8.2	-2.1
20	COc1ccc(S(=O)(=O)N(C)C[C@@H]2Oc3c(NS(=O)(=O)c4ccc(F)cc4)cccc3C(=O)N([C@@H](C)CO)C[C@@H]2C)cc1	-3.8	-5.4	0.6
21	COc1ccc2c3c([nH]c2c1)[C@@H](CO)N(C(=O)Nc1ccccc1F)CC31CN(C(=O)C2CC2)C1	-0.4	-4.7	0.7
22	C[C@@H]1CN([C@H](C)CO)C(=O)c2cc(-c3ccncc3)cnc2O[C@@H]1CN(C)C(=O)C1CCOCC1	0.7	5.8	-3.6
23	CC(C)C1CC(N(C)C)=CC(=S)N1 (stereo unspecified)	-48.1	-73.1	-8.2
24	Cc1cccc(C)c1NC(=O)C1(C)CN(S(C)(=O)=O)CC(=O)N1CCCN1CCOCC1 (stereo unspecified)	15.1	8.5	3.2
25	COc1ccc(NC(=O)N(C)C[C@H]2OCCCC[C@@H](C)Oc3ccc(NC(=O)c4ccncc4)cc3C(=O)N([C@H](C)CO)C[C@@H]2C)cc1	1.3	5.8	4.3
26	COc1ccc(CN(C)C[C@H]2Oc3ccc(NS(=O)(=O)c4cccs4)cc3C(=O)N([C@H](C)CO)C[C@H]2C)cc1	2.4	-0.4	-1.9
27	C/C=C/c1ccc2c(c1)O[C@@H](CN(C)C(=O)NC1CCCC1)[C@H](C)CN([C@H](C)CO)S2(=O)=O	-0.6	-1.0	-2.5
28	CN(C)CC(=O)N1[C@@H](CO)[C@@H](c2ccccc2)C12CN(C(=O)c1ccccc1)C2	5.1	3.8	0.5
29	CN(C)CCNC(=O)c1cccc(-c2cccc3nncn23)c1	9.7	10.1	0.9
30	C[C@@H]1CCCCO[C@H](CN(C)S(=O)(=O)c2ccc(Cl)cc2)[C@@H](C)CN([C@@H](C)CO)C(=O)c2cc(NC(=O)Nc3cccc4ccccc34)ccc2O1	-4.5	-0.6	-4.4
31	Cc1cccc(C)c1Cn1c(C)c(C(=O)NCc2ccc(C#N)cc2)sc1=O	-12.5	-4.9	-0.8
32	O=C(C[C@H]1CC[C@H](NC(=O)c2ccc3c(c2)OCO3)[C@@H](CO)O1)NCc1ccc(Cl)cc1	-1.2	-4.2	0.3
33	COc1ccc(S(=O)(=O)Nc2ccc3c(c2)C(=O)N([C@H](C)CO)C[C@H](C)[C@H](CN(C)S(=O)(=O)c2ccc(C)cc2)OCCCC[C@@H](C)O3)cc1	1.6	3.1	-1.3
34	COc1cccc(C(NC(C)=O)c2nc(/C=C/c3ccccc3)cs2)c1 (stereo unspecified)	-3.9	-29.2	-4.6
35	C[C@@H]1CN([C@H](C)CO)C(=O)c2cc(NC(=O)CCCN(C)C)ccc2O[C@@H]1CN(C)Cc1ccc2c(c1)OCO2	0.9	5.4	-2.0
36	COc1ccccc1NC(=O)N1C[C@@H](C)[C@H](OC)CN(C)C(=O)c2ccc(NC(=O)c3cnccn3)cc2OC[C@H]1C	1.9	-2.4	0.8
37	CC1=C(C(=O)N2CCCCCC2)CC(CC(=O)NC2CCCC2)C(=O)N1Cc1ccccc1 (stereo unspecified)	10.2	9.1	3.9
38	COc1ccc(S(=O)(=O)N2CCC(C(=O)N[C@@H](C)C(=O)N3CCCC3)CC2)cc1	0.9	5.7	-2.4
39	CO[C@H]1CN(C)C(=O)c2ccc(NC(=O)c3ccc(F)cc3)cc2OC[C@H](C)N(C(C)=O)C[C@@H]1C	0.2	0.4	-1.1
40	CC(C)C(=O)Nc1ccc2c(c1)C(=O)N(C)[C@H]1CC[C@H](CC(=O)Nc3ccccc3)O[C@@H]1CO2	-4.9	-5.4	-2.5
41	C[C@@H]1CCCCO[C@H](CN(C)C(=O)Nc2cccc3ccccc23)[C@@H](C)CN([C@H](C)CO)C(=O)c2cc(NC(=O)Nc3ccc(F)cc3)ccc2O1	0.8	2.3	-0.2
42	Cc1ccc(S(=O)(=O)N2[C@@H](c3cccc(Cl)c3)C(C(=O)OC(C)(C)C)=CC[C@H]2c2ccc(C(C)C)cc2)cc1	20.0	10.1	-0.9
43	CO[C@@H]1CC[C@@H]2CCN(C)C(=O)C[C@H](c3ccccc3)CN(C)C(=O)c3cc(C#N)ccc3OC[C@@H]1O2	1.9	-9.1	-4.9
44	CC1C(=O)N(Cc2cn(Cc3ccco3)nn2)CCS(=O)(=O)N1Cc1ccc(-c2ccc(F)cc2Cl)cc1 (stereo unspecified)	2.3	-6.8	-0.6
45	CNC[C@@H]1Oc2ccc(NC(=O)NC(C)C)cc2CC(=O)N(C)C[C@@H]1C	1.0	2.3	-2.6
46	C[C@H](NC(=O)C[C@@H]1C[C@@H]2c3cc(NC(=O)Cc4ccncc4)ccc3O[C@@H]2[C@H](CO)O1)c1ccccc1	1.7	6.4	-1.0
47	C[C@@H]1CN([C@@H](C)CO)C(=O)c2cc(C#CCc3ccccc3)cnc2O[C@@H]1CN(C)Cc1cccc(F)c1	-3.9	-18.5	16.9
48	COc1ccc(C#Cc2cnc3c(c2)C(=O)N([C@H](C)CO)C[C@H](C)[C@@H](CN(C)C(C)=O)O3)cc1	-1.7	-2.1	-4.2
49	CO[C@@H]1CN(C)C(=O)c2cc(NC(=O)c3nc4ccccc4s3)ccc2OC[C@H](C)N(Cc2cncnc2)C[C@@H]1C	-6.1	-6.4	4.4
50	CCS(=O)(=O)NCC[C@@H]1CC[C@@H](NC(=O)C2CCCC2)[C@H](CO)O1	1.1	0.9	-2.0
51	CN1CCN(C(=O)C[C@H]2CC[C@H]3[C@@H](COc4ccc(NC(=O)c5cccs5)cc4C(=O)N3C)O2)CC1	0.7	3.0	-1.6
52	O=C(C[C@H]1C=C[C@@H](NC(=O)Nc2ccc(C(F)(F)F)cc2)[C@@H](CO)O1)NCc1ccccn1	-3.1	2.0	0.8
53	C[C@H](CO)N1C[C@H](C)[C@@H](CN(C)S(=O)(=O)c2ccccc2F)Oc2ncc(C#Cc3ccncc3)cc2C1=O	-7.1	-3.3	-0.1
54	C[C@@H]1CCCCO[C@@H](CN(C)C(=O)Nc2ccc(F)cc2)[C@@H](C)CN([C@H](C)CO)C(=O)c2cc(NC(=O)Nc3ccc(C(F)(F)F)cc3)ccc2O1	7.9	11.9	-1.6
55	CN1C(=O)c2cc(NC(=O)C3CCOCC3)ccc2OC[C@H]2O[C@H](CC(=O)NCC3CCCCC3)CC[C@H]21	-2.6	9.5	1.0
56	O=C(C[C@@H]1CC[C@H]2[C@@H](COC[C@@H](O)CN2S(=O)(=O)c2ccc(F)cc2)O1)N[C@H]1CCN(Cc2ccccc2)C1	-1.2	0.9	-1.8
57	O=C(Nc1ccc(F)cc1)N1CCCCN2[C@H](CO)[C@@H](c3ccc(C#CC4CC4)cc3)[C@@H]2C1	-56.2	-72.7	-7.5
58	O=C(NCC[C@H]1CC[C@@H](NC(=O)C2CCC2)[C@@H](CO)O1)c1cc(Cl)cc(Cl)c1	-4.2&-1.1	-9.1&-3.7	0.5&2.8
59	CC(C)NC(=O)N(C)C[C@H]1Oc2ncc(C3=CCCCC3)cc2C(=O)N([C@H](C)CO)C[C@H]1C	6.8	10.5	-2.1
60	O=C(C[C@@H]1CC[C@H](NC(=O)Nc2ccc(C(F)(F)F)cc2)[C@H](CO)O1)NCCN1CCCC1	-4.5	7.2	-1.6

(cont.)
no.	Molecule	rRNA inh HTS	rRNA inh HTS OD600	rRNA inh HTS RFP
61	C[C@H](CO)N1C[C@H](C)[C@@H](CN(C)S(=O)(=O)CC(F)(F)F)OCc2ccccc2-c2c(n(C)c3ccccc23)C1=O	-4.1	-2.4	-2.3
62	CN1C[C@H]2[C@@H](c3ccccc31)[C@H](CO)N2C(=O)Nc1ccc(F)cc1	-2.1	-0.5	-0.4
63	CC(=O)N(C)C[C@H]1Oc2cc(/C=C/c3ccccc3)ccc2S(=O)(=O)N([C@@H](C)CO)C[C@H]1C	-10.9	-9.0	-0.5
64	CO[C@@H]1CN(C)C(=O)c2cc(NC(=O)c3ccc(F)cc3)ccc2OC[C@@H](C)N(C(=O)CC2CC2)C[C@@H]1C	-1.0	1.6	-2.9
65	CC(C)C(=O)Nc1ccc2c(c1)C(=O)N(C)[C@H]1CC[C@@H](CC(=O)NC3CCCC3)O[C@@H]1CO2	3.4	8.8	-2.5
66	O=C(C[C@H]1CC[C@@H]2[C@H](COC[C@H](O)CN2S(=O)(=O)c2ccc(Oc3ccccc3)cc2)O1)Nc1ccccc1	-22.0	-63.1	26.8
67	O=C(CN1CCOCC1)NCC[C@@H]1CC[C@H](NS(=O)(=O)c2ccc(Cl)cc2)[C@@H](CO)O1	0.9	2.7	0.0
68	NC(CCc1ccccc1)c1csc(NC(=O)Nc2cccc(C(F)(F)F)c2)n1 (stereo unspecified)	-63.9	-82.5	-22.8
69	C[C@@H]1CN([C@H](C)CO)S(=O)(=O)c2ccc(-c3cccc(C#N)c3)cc2O[C@H]1CN(C)C(=O)C1CC1	-8.8	-9.5	-1.3
70	COc1ccc(S(=O)(=O)N2CCCCN3[C@H](CO)[C@@H](c4ccc(C5=CCCC5)cc4)[C@H]3C2)cc1	-49.5	-60.7	3.0
71	CCC(=O)N1CC2(C1)CN(Cc1cccc(F)c1)[C@H](CO)c1c2c2ccc(OC)cc2n1C	-2.8	-1.2	-3.0
72	C[C@H](CO)N1C[C@H](C)[C@@H](CN(C)S(=O)(=O)c2ccc(F)cc2)OCCCC[C@H](C)Oc2ccc(NC(=O)Nc3cccc4ccccc34)cc2C1=O	2.8	-1.1	-0.5

Just rRNA inh HTS, for some of the entries so far:
| nr | molecule | rRNA inh HTS |
| --- | --- | --- |
| 61 | C[C@H](CO)N1C[C@H](C)[C@@H](CN(C)S(=O)(=O)CC(F)(F)F)OCc2ccccc2-c2c(n(C)c3ccccc23)C1=O | -4.1 |
| 62 | CN1C[C@H]2[C@@H](c3ccccc31)[C@H](CO)N2C(=O)Nc1ccc(F)cc1 | -2.1 |
| 63 | CC(=O)N(C)C[C@H]1Oc2cc(/C=C/c3ccccc3)ccc2S(=O)(=O)N([C@@H](C)CO)C[C@H]1C | -10.9 |
| 64 | CO[C@@H]1CN(C)C(=O)c2cc(NC(=O)c3ccc(F)cc3)ccc2OC[C@@H](C)N(C(=O)CC2CC2)C[C@@H]1C | -1.0 |

An excerpt; count on the stated rates, not on these rows.
